Bioassay records deposited in PubChem by several laboratories.
PABP FP inh = blocks human PABP binding to poly(A) RNA; 290,000 tested, 1% active; inhibition, % at 35 µM; P11940; fluorescence polarization; AID 2014;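 active means 50% or more with normal probe brightness, or confirmed in later tests; about a fifth of its hits are not listed in these tables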;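 further: calls also rest on retests at 20 µM and on dose response follow-up; controls were probe without protein and protein plus probe with vehicle; some compounds called inactive have numbers as strong as hits; many hits fall short of the cut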
Target sequence (P11940 whole entry, looked up): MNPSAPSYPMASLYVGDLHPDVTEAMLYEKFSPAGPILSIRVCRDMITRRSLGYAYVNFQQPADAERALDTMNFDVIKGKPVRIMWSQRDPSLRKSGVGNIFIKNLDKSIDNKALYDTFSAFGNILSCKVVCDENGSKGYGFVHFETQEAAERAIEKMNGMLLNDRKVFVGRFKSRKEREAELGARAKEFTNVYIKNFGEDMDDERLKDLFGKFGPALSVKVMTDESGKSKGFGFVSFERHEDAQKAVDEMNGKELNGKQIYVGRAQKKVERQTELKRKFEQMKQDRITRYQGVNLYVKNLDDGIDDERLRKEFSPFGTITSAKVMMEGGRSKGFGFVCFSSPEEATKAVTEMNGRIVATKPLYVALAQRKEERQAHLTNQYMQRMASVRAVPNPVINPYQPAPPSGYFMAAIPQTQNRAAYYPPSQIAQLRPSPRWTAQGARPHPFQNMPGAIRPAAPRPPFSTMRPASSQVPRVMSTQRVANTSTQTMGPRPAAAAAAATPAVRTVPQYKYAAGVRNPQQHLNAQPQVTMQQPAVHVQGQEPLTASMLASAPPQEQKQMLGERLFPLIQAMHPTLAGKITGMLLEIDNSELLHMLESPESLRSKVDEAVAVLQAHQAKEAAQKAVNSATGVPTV
Yeast UUG start = alters start codon recognition fidelity in yeast; S. cerevisiae UUG-firefly luciferase reporter, luminescence/redox ratio; activity score, % at 18.7 µM; 350,000 tested, 0.13% active; AID 602363;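 active means replicate mean at a twofold rise or more, about +100% in these data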;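 further: firefly luciferase made from a UUG start codon reports start codon fidelity; reporter light over untreated wells divided by growth signal over untreated wells; some hits fall short of that in this replicate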
HIV Env fusion = inhibitors of HIV Env-mediated cell fusion. HeLa-JRFL Env/CEM21 cell fusion, luciferase. inhibition, % at 12.3 µM. 360,000 tested, 1.1% active;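 active means mean replicate inhibition score of at least 50 and every replicate individually at or above 50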;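 further: 0% = plate neutral controls and 100% = maraviroc near 300 nM; one replicate is shown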
eIF4H FP inh = inhibitors of RNA binding by human eIF4H. Q15056. eIF4H fluorescence polarization binding assay. inhibition, % at 35 µM. 290,000 tested, 0.94% active. AID 2012;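 active means 50% or more with normal probe brightness, or confirmed in later tests; about a fifth of its hits are not listed in these tables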;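 further: calls also rest on retests at 20 µM and on dose response follow-up; 0% = protein and probe with vehicle and 100% = probe without protein; strong numbers were not always called active; many hits fall short of the cut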
MT1-MMP act inh = inhibitors of human MT1-MMP activation | 360,000 tested, 0.061% active | GFP/RFP ratio change, % at 20 µM | P50281 | HT1080 RFP-PRO-GFP cells, GFP/RFP ratio fluorescence, overnight; percent of plate control window, DMSO zero | AID 651647;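 active means GFP/RFP ratio change of at least 30% with cell ATP level not reduced by more than half and red fluorescence within 50% of control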; further: strong numbers were not always called active
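Assay system: RFP-PRO-GFP reporter HT1080 cells; read-out basis: GFP/RFP fluorescence ratio; benchmarks: DMSO wells and RFP-L50D-GFP cells; doses: 20 µM single dose, 1% DMSO; schedule: overnight cell settling, then overnight compound exposure, 37 °C, 5% CO2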
CSC inhib = blocks cancer stem cells; inhibition, % at 7.5 µM; 300,000 tested, 1.1% active; cancer stem cell-like cells viability, luminescence;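 active means mean at 75% or more and at least half the replicates too; tested in HMLE shEcad cells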;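 further: 0% = median of negative and 100% = median of positive control wells; the first replicate is given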
Rce1 inh = inhibitors of yeast Ras-converting enzyme; Q03530; calls only; yeast membranes, quenched prenylated peptide cleavage fluorescence; AID 2563; 290,000 tested, 0.27% active;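 active means fall in fluorescence gain of 50% or more versus controls, with final raw signal at or below 3038400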;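 further: plate controls were neutral control wells for no effect and wells lacking membranes for full effect; tested at 10 µM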
eIF4H FP inh retest = recorded beside eIF4H FP inh, whose call it bears; inhibition, %; compound at 20 µM; confirmation average;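 mean of two retest wells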
PABP FP inh retest = further read-out of PABP FP inh, marked with its call; inhibition, %; compound at 20 µM; confirmation repeats;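 mean of two retest wells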
MT1-MMP act inh RFP = second read-out of MT1-MMP act inh, no call of its own (marks repeat the call); RFP signal change, %; measured here: RFP expression control read;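 0 = vehicle wells; hits needed this value within 50% of zero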
The depositor's hits bear a star; i = inactive; · = not tested or not shown; & = joins results of further samples.

SMILES	PABP FP inh	Yeast UUG start	HIV Env fusion	eIF4H FP inh	MT1-MMP act inh	MT1-MMP act inh RFP	CSC inhib	Rce1 inh	others
COc1ccc(CC2(CO)CCN(Cc3cnn(-c4ccccc4)c3)CC2)cc1	6	·	19	-4	1	-3	21	i
O=C(CCNS(=O)(=O)c1ccc(Cl)cc1)N1CCCCCC1	6	-6	3	1	0	0	-4	i
COc1ccc(Cc2noc(CN(C)Cc3cccc(-n4cccn4)c3)n2)cc1OC	-6	·	-3	-7	1	-2	-8	i
C=CCN=C1CC(C)(C)CC(=O)/C1=C(\O)c1ccccc1	5	-19	-19	-9	1	2	-7	i
Cc1cccc(NS(=O)(=O)c2ccc3c(c2)NC(=O)CO3)c1C	-1	-4	-2	-5	-4	1	-8	i
CC(C)c1ccc(C(=O)CSc2ncn[nH]2)cc1	-4	·	·	-5	10	-2	17	i
Cc1nnc(SCc2cccc([N+](=O)[O-])c2)o1	-4	-16	6	2	2	1	1	·
CN(C(=O)COC(=O)COc1ccc(N(C)S(=O)(=O)c2ccc(Cl)cc2)cc1)c1ccccc1	·	14	-6	·	3	3	·	·
Cc1ccc(S(=O)(=O)N(CC(=O)c2ccc(Cl)cc2)C(=O)N2CCN(C)CC2)cc1	·	-2	3	·	-2	2	-2	i
O=C(C1=C(O)C(=O)N(CCN2CCOCC2)C1c1cccc([N+](=O)[O-])c1)c1cc2ccccc2o1 (stereo not given)	·	19	4	·	3	4	·	·
CCC(C)(C)C1CCc2[nH]nc(C(=O)NCc3ccc(Cl)cc3)c2C1 (stereo not given)	·	-6	20	·	1	0	-10	·
COc1cc(-c2cc(C(=O)Nc3ccc(N4CCOCC4)cc3)c3ccccc3n2)cc(OC)c1OC	-1	-5	-17	-5	2	-3	-2	i
Cc1cn([C@H]2C[C@H](O)[C@@H](CNC/C=C/c3ccccc3[N+](=O)[O-])O2)c(=O)[nH]c1=O	·	-14	-32	·	-4	3	·	·
COC(=O)[C@]1(Cc2ccccc2)N[C@H](CN(C)C(=O)c2ccc(C)cc2)[C@@H]2C(=O)N(Cc3ccccc3)C(=O)[C@@H]21	·	-6	-99	·	4	-3	·	·
COc1ccccc1Nc1nc(C2(C)CCC(=O)O2)cs1 (stereo not given)	6	-15	-15	-5	10	1	3	i
COCCNCCCCOc1ccc(C)cc1[N+](=O)[O-]	25	-10	2	9	6	8	-15	i
CCOc1ccc(CN2CCN(C3CCSCC3)CC2CCO)cc1 (stereo not given)	-3	-5	0	53	-9	-3	-2	i	eIF4H FP inh retest=3;PABP FP inh retest=6
O=C(NC1CCCCC1)C(c1ccncc1)N(Cc1ccc2c(c1)OCO2)C(=O)C(F)(F)F (stereo not given)	10	-6	4	45	4	0	-9	i
CCOc1ccc(-n2nnnc2SCC(=O)NC2CCCC2)cc1	6	-11	7	3	0	-4	7	i
CC(=O)n1cc([C@@H]2C=C(C(=O)N3CCN(C)CC3)O[C@H](OCc3ccc(CO)cc3)C2)c2ccccc21	·	15	7	·	-9	4	-8	i
c1ccc(Oc2nnc(-c3cccs3)c3ccccc23)cc1	3	1	11	-14	-9	-5	-2	i
CC(C)N1CCc2c(sc(NC(=O)Cc3ccccc3)c2C#N)C1	-7	-6	-4	6	-3	4	-2	i
COc1ccc(NC(=O)C2CSC3c4ccccc4C(=O)N23)cc1 (stereo not given)	4	-19	-30	-5	4	6	8	i
CC12COC3(C(=O)Nc4ccccc4F)CC1CCC32C (stereo not given)	-5	-11	-5	4	2	0	14	i

Filtered by structure, the compounds so far containing an NH in an aromatic ring (three)
SMILES	PABP FP inh	Yeast UUG start	HIV Env fusion	eIF4H FP inh	MT1-MMP act inh	MT1-MMP act inh RFP	CSC inhib	Rce1 inh	others
CC(C)c1ccc(C(=O)CSc2ncn[nH]2)cc1	-4	·	·	-5	10	-2	17	i
CCC(C)(C)C1CCc2[nH]nc(C(=O)NCc3ccc(Cl)cc3)c2C1 (stereo not given)	·	-6	20	·	1	0	-10	·
Cc1cn([C@H]2C[C@H](O)[C@@H](CNC/C=C/c3ccccc3[N+](=O)[O-])O2)c(=O)[nH]c1=O	·	-14	-32	·	-4	3	·	·

More structures follow.
SMILES	PABP FP inh	Yeast UUG start	HIV Env fusion	eIF4H FP inh	MT1-MMP act inh	MT1-MMP act inh RFP	CSC inhib	Rce1 inh	others
O=C(CSc1cnc2ccccc2n1)c1ccc(F)cc1	0	·	-26	70	-6	7	12	i	eIF4H FP inh retest=9;PABP FP inh retest=9
COc1ccc(C(=O)NNC(=S)NC(=O)c2cccnc2)cc1	4	·	-13	-3	6	5	11	i
O=C1CC(NS(=O)(=O)c2cccs2)CN1c1ccccc1 (stereo not given)	·	-5	-6	·	-1	2	-12	i
CCCOc1ccc(NC(=O)CC2C(=O)N(C)C(=S)N2Cc2cccs2)cc1 (stereo not given)	17	-5	·	0	-4	0	-6	i
O=C(COC(=O)/C=C/c1ccc([N+](=O)[O-])cc1)NC1CCCCC1	·	-11	·	·	2	-1	2	·
CC(C)c1c(C(=O)N/N=C/c2ccc3c(c2)OCO3)nnn1-c1nonc1N	10	-15	-3	4	5	2	-10	i
COc1cccc(C2=NOC(C(=O)Nc3cc(C)nn3-c3ccccc3)C2)c1OC (stereo not given)	10	-6	·	-17	-3	0	3	i
CCc1c(C(=O)Nc2cc(C(=O)OC)ccc2C)csc1C	-6	-6	2	0	-1	-4	-12	i
COc1ccc(C(=O)COC(=O)[C@H](C)Nc2ccc(C(F)(F)F)cc2[N+](=O)[O-])c(OC)c1	1	-17	·	6	2	9	-4	i
COc1ccc([C@@H]2[C@@H]3C(=O)N(C(C)(C)C)C(=O)[C@@H]3[C@]3(Cc4ccccc4)C(=O)N(c4ccc(OC)cc4)C(=O)N23)cc1	·	-21	-11	·	-1	-1	-23	i
COc1ccc(CCn2c(=N)c(C(=O)NC3CCCCC3)cc3c(=O)n4ccccc4nc32)cc1	9	-9	4	-12	-10	-5	-2	i
C=CCn1c(=O)c2ccccc2n2c(SCC(=O)c3ccccc3)nnc12	2	-8	-157	-2	-1	-1	12	i
Cc1ccnc(NS(=O)(=O)c2ccc(NC(=O)Cc3ccc(Br)cc3)cc2)n1	-4	-8	-2	0	-2	0	4	i
S=C(NCc1ccco1)NC1CCCc2ccccc21 (stereo not given)	-4	·	-3	7	-4	8	-12	i
CCCC(c1nnnn1Cc1ccc(OC)cc1)N1CCN(c2ccccc2)CC1 (stereo not given)	-7	17	·	-1	-2	-3	·	i
COc1ccc(C(=O)NCC2(N3CCCCC3)CCCCC2)cc1S(=O)(=O)N(C)C	-2	-2	5	-2	-1	8	5	i
CC(=O)Nc1ccc(S(=O)(=O)N2CCN(c3cc(C)nc4ncnn34)CC2)cc1	-9	·	-8	-7	4	3	11	i
COc1ccc(C(c2c(O)cc(C)oc2=O)c2c(O)cc(C)oc2=O)cc1	-8	-9	-4	4	2	5	10	i
CCOC(=O)c1nc[nH]c1C	1	-19	·	-4	4	2	-12	i
CCOc1ccc(NC(=O)CN(C)C(=O)c2ccncc2)cc1OCC	13	-2	·	-4	-5	-4	·	i
Cc1ccc(Sc2nc(C)c([N+](=O)[O-])c(C)c2C#N)cc1	6	-28	5	0	-2	-7	58	i
COc1ccc(S(=O)(=O)N(C)C[C@@H]2Oc3cc(C#CC4CCCCC4)ccc3S(=O)(=O)N([C@@H](C)CO)C[C@@H]2C)cc1	·	62&-11&-16	3	·	-6	-7	·	·
CCCCn1c(N)c(N(CC(C)C)C(=O)CSc2ccc([N+](=O)[O-])cc2)c(=O)[nH]c1=O	·	-23	-6	·	0	-1	-1	i
O=C(NC1CCCCC1)Oc1cc2oc(=O)sc2cc1Br	-6	·	11	0	-1	1	7	i
C=C1SC(=Nc2ccccc2Cl)N(C(=O)c2sc3ccccc3c2Cl)C12CCCCC2	-3	·	·	-9	·	·	27	i
NC(=O)c1ccsc1NC(=O)C1CCCCC1	1	-11	-1	-6	1	1	21	i
CCCNC(=O)C[C@@H]1C[C@@H]2c3cc(NS(=O)(=O)c4ccc(OC)cc4)ccc3O[C@@H]2[C@@H](CO)O1	·	-14	-32	·	0	-2	·	·
C=CC(C)(O)CCCC(C)CCCC(C)CCCC(C)C (stereo not given)	·	-6	·	·	-1	1	-4	·
Cc1ccc(NC(=O)c2cccc(NC(=O)CC3SC(N4CCCCC4)=NC3=O)c2)nc1 (stereo not given)	·	-3	1	·	-2	-1	0	i
O=C(CSc1ncnc2ccccc12)NCC(=O)c1ccccc1	-3	·	-2	-6	-1	-4	-4	·
COC(=O)c1cccc(NC(=O)CN2CCC(NC(=O)c3cc(OC)c(OC)c(OC)c3)CC2)c1	·	-6	5	·	·	·	-1	i
O=C(Cn1nc(C(F)(F)F)c2c1CCCC2)NC1CCCC1	-2	-16	-93	1	-1	-1	-3	i
Cc1ccccc1NC(=S)N1CCCCCC1	-2	-28	3	5	1	4	-18	i
Cc1ccc(CS(=O)(=O)CCC(=O)NCCCN2CCCC2)cc1	0	-1	·	1	4	-2	-2	i
Cc1ccc2occ(/C=N/NC(=O)[C@@H](N)Cc3ccccc3)c(=O)c2c1	5	-6	13	1	-12	-4	-15	i
CCOC(=O)c1ccc(NC(=O)c2cn(CCC#N)nc2-c2ccc3c(c2)OCCO3)cc1	-5	·	-20	9	8	1	5	i
CCN(c1ccccc1)S(=O)(=O)c1cccc(C(=O)NCc2ccncc2)c1	·	1	10	·	0	-4	-8	i
COc1ccc(/C(C)=N/N=C(N)N)c(O)c1	1	·	-81	-2	-2	2	-6	i
CC(C)C(C)NC(=O)COn1nnc2ccc(S(=O)(=O)N3CCOCC3)cc21 (stereo not given)	·	-11	·	·	3	6	-6	·
COc1cccc(NC(=O)c2ccc(S(=O)(=O)NCc3cccnc3)cc2)c1	-5	7	44	16	0	-16	-6	i
O=C(NCc1cccnc1)c1ccc(Cl)cc1[N+](=O)[O-]	1	6	-56	5	2	2	8	i
O=C(Cc1cccs1)N[C@@H]1c2ccccc2CC[C@@H]1OCc1ccccc1	·	-24	-8	·	1	0	·	·
CSc1ccc(CCCCCCOC(=O)C(C)(C)C)cc1	·	-3	13	·	-1	1	2	·
O=C(Nc1cccc(Cl)c1)Nc1nccs1	-2&-2	2	-68	-6&-3	6	4	27	i
COc1ccc2c(c1)OC[C@H]1[C@H]2N2C(=O)c3cc(Br)ccc3NC(=O)[C@@]2(C)[C@H]1c1ccccc1	·	-2	·	·	-34	-21	-9	·
O=C(COc1coc(CN2CCN(c3ccccc3)CC2)cc1=O)NC1CCCCC1	·	-2	·	·	3	-8	-5	i
COc1ccc(CC(C)Nc2cccc(SC)c2)cc1 (stereo not given)	-1	-14	-44	-7	-6	-3	-12	i
Cc1cc(C)c2c(c1)cc(C)c1nnc(SCC(=O)Nc3ccc(S(=O)(=O)N4CCCCC4)cc3)n12	-10	-9	-3	-10	-1	-3	-16	i
CNCCc1ccccn1	-4	-19	·	-13	3	5	·	i
CCC(C)c1ccccc1N1CC(C(=O)Nc2ccc(S(=O)(=O)N3CCOCC3)cc2)CC1=O (stereo not given)	·	20	-41	·	0	-4	-3	i
O=C(NCc1ccc(F)cc1)C1CCN(S(=O)(=O)c2ccc3c(c2)OCCCO3)CC1	-8	-10	22	-12	-10	-13	0	i
CC(C)c1nccn1S(=O)(=O)c1cccc([N+](=O)[O-])c1	-5	·	-26	-4	5	13	-4	·
COC(=O)c1sccc1NC(=O)CC1C(=O)NCCN1C(=O)c1c(F)cccc1Cl (stereo not given)	10	0	-9	-6	-2	2	12	i
CCOc1cc(/C=N/NC(=O)CSc2nncn2C)ccc1OC(=O)c1ccc(Cl)cc1	9	·	7	-6	-5	0	13	i
Brc1cccc(CN2CCCCCC2)c1	8	-9	-8	8	0	5	-14	i
